# T cruzi repl: T. cruzi replication inhibition; T. cruzi beta-gal in NIH3T3, luminescence, 90 h; 300,000 tested, 1.4% active; AID 1885; inhibition, % (no concentration beside the values);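 active = mean inhibition across valid replicates above about 55%, limit read from the data; inconclusive = mean below that limit but half or more replicates reach it; inactive = mean below it, under half of replicates reach it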;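 also: signal also drops with host cell toxicity which is not excluded here; 0% = plate median of DMSO wells and 100% = zero luminescence signal; higher percent means less beta-gal luminescence so fewer parasites; stock transfer was 50 nL into about 50 µL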
# Beta apoptosis: beta cell apoptosis inhibition. INS-1E cytokine-induced death, ATP luminescence, 48 h; percent of positive-control rescue, neutral wells zero. protection from apoptosis, % (no concentration beside the values). 300,000 tested, 0.8% active;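 active = all replicates at 75% or more, or half of them and the mean; inconclusive = half reach 75% but not the mean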;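 also: 0% = cytokine-treated negative control wells and 100% = positive control rescue; higher means more ATP so stronger rescue from cytokine killing; wells of about 40 µL received 100 nL stock; the first replicate is given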
# Calb FLC: C. albicans growth modulation with fluconazole. C. albicans CaCi-2 (fluconazole-resistant clinical isolate) + fluconazole, Alamar Blue growth, 48 h. growth inhibition, % (concentration not given with the values). 300,000 tested, 0.57% active;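 active = most replicates above 75%; inconclusive = exactly half above 75%; inactive = most below 75%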;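 also: all wells also contain fluconazole at 8 µg/ml as a sub-toxic cotreatment; 0% = median of DMSO wells and 100% = median of geldanamycin control wells; wells of about 8 µL received 7.5 nL stock; the first replicate is given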
# RanGTP-Imp inh: inhibitors of RanGTP-importin-beta interaction, primary screen, biochemical, FRET, CFP-Ran, YFP-importin-beta, homogeneous | cell-free CFP-Ran/YFP-importin-beta FRET ratio | inhibition, % (test concentration not listed) | 300,000 tested, 1.1% active;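 active = most replicates above 15%; inconclusive = exactly half above 15%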;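 also: 0% = DMSO wells and 100% = Ran loaded with GDP instead of GTP; wells of about 40 µL received 100 nL stock; the first replicate is given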
# MLL AF4-AF9 inh: inhibitors of human MLL-AF4/AF9 interaction; 350,000 tested, 0.47% active; AID 651704; P42568; inhibition, % at 10 µM; AlphaScreen, biotin-AF4 peptide binding to FLAG-AF9;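 active = every replicate reaching a set inhibition limit, whatever the replicate mean, cut at about 25% in these data; inconclusive = mean inhibition reaches that limit but some replicates miss it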;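 also: 0% = plate neutral control median and 100% = total signal loss; the record names both 10 and 1 µM as test concentration; the first replicate is given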
# Target sequence (P42568 whole entry, looked up): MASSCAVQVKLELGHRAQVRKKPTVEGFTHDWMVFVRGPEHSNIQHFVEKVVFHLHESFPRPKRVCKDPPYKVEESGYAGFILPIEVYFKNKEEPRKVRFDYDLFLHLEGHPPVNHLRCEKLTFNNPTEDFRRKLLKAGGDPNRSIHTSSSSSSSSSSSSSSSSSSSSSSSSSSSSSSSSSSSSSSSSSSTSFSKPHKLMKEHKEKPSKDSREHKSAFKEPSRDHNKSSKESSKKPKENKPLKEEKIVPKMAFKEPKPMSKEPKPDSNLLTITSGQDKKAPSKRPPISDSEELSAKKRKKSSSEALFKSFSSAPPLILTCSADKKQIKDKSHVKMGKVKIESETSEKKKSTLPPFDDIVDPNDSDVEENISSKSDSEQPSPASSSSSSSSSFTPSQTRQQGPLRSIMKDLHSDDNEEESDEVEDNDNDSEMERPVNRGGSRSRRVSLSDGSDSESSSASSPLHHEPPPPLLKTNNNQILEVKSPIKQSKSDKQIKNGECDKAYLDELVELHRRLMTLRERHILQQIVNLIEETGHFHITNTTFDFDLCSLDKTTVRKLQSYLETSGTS
# A1 inh: inhibitors of the anti-apoptotic protein A1, read as caspase activation. MEF A1-2A-BIM cells, Caspase-Glo 3/7 luminescence, 3 h; percent of clofoctol response, vehicle zero. 330,000 tested, 0.066% active. AID 2462. caspase activation, % (test concentration not listed);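 active = over half of replicate activation scores above 10%, or exactly half above 10 with the replicate mean above 10; inconclusive = replicate mean below 10 yet half the replicates above 10; inactive = over half of replicates below 10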;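 also: wells of about 30 µL received 50 nL stock; many hits fall short of the cut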
# Vif A3G: HIV-1 Vif–A3G interaction blockers – biochemical, TR-FRET, GST-Vif 1-94, biotin-A3G peptide, dose response retest, primary screen (AID 1117319); TR-FRET GST-Vif / biotin-A3G peptide binding; higher % means a stronger effect; test concentration not given here; strong numbers were not always called active; inhibition, %, or IC50 in µM where a hit was titrated; 260,000 tested, 0.57% active;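 active = above the screen mean plus three standard deviations and confirmed in dose response; inconclusive = results disagree or hit not tested in dose response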;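 also: Vif residues 1-94 fused to GST binding biotinylated APOBEC3G peptide 110-148; 0% = full assay without inhibitor and 100% = GST in place of GST-Vif; retest series ran down from 100 µM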
# rRNA inh HTS: inhibits bacterial ribosomal RNA function over humanized ribosomes; E. coli WT GFP vs humanized-ribosome RFP mutants, fluorescence, 24 h; stronger effect = lower value; DMSO median 0, no signal -100; GFP signal change (wild-type ribosome), % (test concentration not listed); 350,000 tested, 1.6% active;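 active = significant combined selectivity score with lowered wild-type GFP, culture density cut under 30%, mutant RFP and density less affected; inactive = any of these conditions unmet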; also: one replicate is shown; some compounds called inactive have numbers as strong as hits
# rRNA inh HTS OD600: second read-out of rRNA inh HTS, no call of its own (marks repeat the call); OD600 change, %; measured here: OD600 growth;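 optical density of the mix in the first replicate; 0 = DMSO median and -100 = no signal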
# rRNA inh HTS RFP: also measured in rRNA inh HTS; calls as there; RFP signal change, %; measured here: RFP humanized mutant strains;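 first replicate; 0 = DMSO median and -100 = no signal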
# Numbers without * were called inactive; u = inconclusive; x = no result given; & = joins results of further samples. Not all compounds are listed, so the mix of outcomes need not match the whole.
SMILES,T cruzi repl,Beta apoptosis,Calb FLC,RanGTP-Imp inh,MLL AF4-AF9 inh,A1 inh,Vif A3G,rRNA inh HTS,rRNA inh HTS OD600,rRNA inh HTS RFP
O=C(N/N=C/c1cccc(O)c1)c1ccc(NC(=O)C2CCCCC2)cc1,-9.2,4.5,u,1.5,1.6,0.1,x,-1.2,4.9,-3.3
Cc1ccc(CCNS(=O)(=O)c2ccc3c(c2)N(C)CCO3)cc1,-0.2,-3.5,-5.9,-5.5,-4.1,-0.6,6.9%,-2.3,-20.0,-6.3
Cc1nc2ccc(Cc3ccc4nc(C)[nH]c4c3)cc2[nH]1,u,-1.4,2.0,4.8,x,-1.8,-8.2%,x,x,x
O=[N+]([O-])c1ccc(Nc2ccc(F)cc2)nc1,-3.2,-7.7,-3.6,-0.4,x,0.1,x,x,x,x
O=C(NCC1CC1)c1cccc2c1C(=O)c1ccc(N3CCCC3)cc1S2(=O)=O,x,-5.8,x,x,-8.0,0.0,x,5.3,2.6,1.5
CC(C)CN(C(=O)CSc1nc(N)cc(N)n1)C1CCS(=O)(=O)C1 (stereo not given),x,-0.3,x,x,-3.6,0.0,-5.0%,16.0,8.2,-1.2
Cc1cc(C(=O)N/N=C/c2ccco2)c2ccccc2n1,-10.4,-7.7,-2.2,0.6,5.7,-0.2,x,-12.3,-11.8,1.7
CCn1ncc(CNC(=O)c2cccc([N+](=O)[O-])c2)c1C,-15.5,-4.3,-1.1,-1.6,x,0.8,12.8%,x,x,x
Cc1c(Br)c(=O)[nH]c(=O)n1COCc1ccccc1,4.7,-1.7,0.6,0.1,x,-1.2,-8.1%,x,x,x
CCn1c(=O)c2cc(C(=O)NCCCOC)sc2c2ccccc21,1.4,-0.1,18.2,1.0,-1.7,-1.5,-6.2%,-16.1,-19.9,1.4
CC(=O)C1=C(c2cccc([N+](=O)[O-])c2)N(C(C)=O)n2c(C)nnc2S1,36.2,1.6,-10.7,2.7,0.4,-0.9,x,1.4,0.0,1.3
COC(=O)c1[nH]c2cccc(C)c2c1NC(=O)CN1CCCc2ccccc21,4.5,-7.1,1.3,-3.0,x,-0.2,23.1%,x,x,x
CCOc1ccc(NC(=O)CN2C(=O)COc3ccc(Cl)cc32)cc1,11.9,-1.8,1.1,17.6*,-1.9,0.4,1.1%,13.9,19.8,0.8
COc1ccc2nc3oc(C(=O)N4CCC(C(N)=O)CC4)cc3cc2c1,-4.5,-1.7,46.9,u,x,0.2,-2.0%,x,x,x
CCC1(C)Cc2c(sc3nc(SCC(=O)c4ccccc4)[nH]c(=O)c23)CO1 (stereo not given),1.7,1.1,0.4,-1.5,-0.1,0.2,-7.9%,-4.7,-5.0,3.2

# RanGTP-Imp inh, what is marked active above.
mol | RanGTP-Imp inh | MLL AF4-AF9 inh | Vif A3G | rRNA inh HTS | rRNA inh HTS OD600 | rRNA inh HTS RFP
CCOc1ccc(NC(=O)CN2C(=O)COc3ccc(Cl)cc32)cc1 | 17.6* | -1.9 | 1.1% | 13.9 | 19.8 | 0.8

# Next section.
SMILES,T cruzi repl,Beta apoptosis,Calb FLC,RanGTP-Imp inh,MLL AF4-AF9 inh,A1 inh,Vif A3G,rRNA inh HTS,rRNA inh HTS OD600,rRNA inh HTS RFP
O=C(CCC1CCCN(C(=O)c2cc(C3CC3)[nH]n2)C1)N1CCN(c2ccccn2)CC1 (stereo not given),1.7,-4.2,-3.6,-1.2,0.5,0.1,4.9%,1.7,-3.6,0.8
Nc1ccc(C(=O)OCc2nc3ccccc3[nH]2)cc1,-10.1,4.0,-1.3,-1.9,x,0.0,4.1%,x,x,x
O=C1C=C(c2ccccc2C(F)(F)F)C[C@@H](c2ccc3c(c2)OCO3)C1,x,-2.2,x,x,-4.1,0.9,x,-27.3,-40.2,-14.6
CCCN(Cc1nnc(-c2ccccc2Cl)o1)C(=O)c1ccc(C)c(S(=O)(=O)N2CCOCC2)c1,23.8,2.9,-0.4,0.2,-19.3,-0.7,0.8%,-3.7,-5.8,2.4
Nc1ccc(S(=O)(=O)c2cccc(N)c2)cc1,-2.1,-3.8,4.1,-2.4,2.3,0.6,0.4%,8.5,7.5,1.4
O=C(COC(=O)CCC(=O)c1ccc(F)cc1)NCCc1ccccc1,x,-0.4,x,x,-2.4,-0.6,-2.9%,-21.1*,-10.2*,0.4*
COCCNCC(=O)C12CC3CC(CC(C3)C1)C2,-5.4,x,7.4,0.0,-38.6,1.7,8.0%,8.0,-1.4,0.3
Cc1cc(C)nc(NC(=O)NC(=O)c2ccccc2)n1,2.5,x,1.1,0.4,-0.4,-0.1,4.0%,0.4,1.4,1.6
Nc1ccccc1Oc1ccc2ccccc2c1,-8.0,-3.6,-53.0,-3.9,-1.6,-0.3,-14.6%,-29.0,-37.4,-8.3
Cc1nn2c(NCc3ccccn3)cc(C(C)(C)C)nc2c1-c1ccccc1,56.7*,24.3,7.4,0.2,x,1.3,-7.3%,20.9,8.2,0.4
CCC(=O)N1CCN(c2ccc(NC(=O)c3cc4ccccc4o3)cc2)CC1,11.2,13.4,22.5,4.1,x,1.4,9.7%,x,x,x
Cn1c(=O)c2c3c(sc2n2c(SCC(N)=O)nnc12)CC(C(C)(C)C)CC3 (stereo not given),36.3,-5.7,-12.4,4.7,x,-0.4,4.1%,x,x,x
CC(C)CC(=O)Nc1nnc(S(=O)(=O)Nc2ccccc2)s1,-7.3,-5.2,-7.5,5.7,-1.2,1.4,3.0%,3.7,19.8,-1.9
O=C(C1COc2ccccc2O1)N1CCN(c2ccccc2F)CC1 (stereo not given),1.7,-3.6,-1.9,-2.5,x,-0.4,-0.2%,x,x,x
COc1ccc(C2C(C#N)=C(N)OC3=C2C(=O)CC(C)(C)C3)cc1Cn1nc(C)c([N+](=O)[O-])c1C (stereo not given),5.7,0.0,13.1,-4.2,1.9,0.0,x,3.8,6.1,-0.6
COc1ccc(Cl)cc1C(=O)NNC(=O)CCNC(C)=O,-9.8,-5.0,-22.1,-8.0,-13.4,0.2,u,7.1,1.1,2.5
COc1ccc([N+](=O)[O-])cc1NC(=O)C1CCCN1S(=O)(=O)c1cccs1 (stereo not given),-9.8,-1.5,5.0,3.3,3.2,-1.4,-7.7%,1.7,9.5,1.9
N#Cc1cccc(NC(=O)Cc2ccccc2)c1,-13.4,-7.4,-4.1,10.2,-0.6,0.9,-6.6%,0.8,2.8,-0.4
Cc1c(-n2c(O)c(C3=c4ccccc4=NC3=O)sc2=O)c(=O)n(-c2ccccc2)n1C,0.2,-4.9,9.9,3.1,-0.7,0.5,-14.0%,8.6,3.2,0.7
COC(=O)NCC(c1ccc2c(c1)OCO2)N1CCN(c2ccccc2)CC1 (stereo not given),2.8,-0.6,2.2,-2.8,0.7,0.2,x,4.8,3.4,-0.3
COc1ccccc1CN1CC(C(=O)NCCN2CCOC2=O)CCC1=O (stereo not given),-3.5,-4.3,1.4,-1.7,-1.4,0.9,x,12.4,7.4,-1.0
CCCCC#Cc1cncc(C(=O)N/N=C/c2ccccc2)c1,-9.5,-2.4,-7.3,-2.1,-0.3,-0.3,1.5%,1.2,-1.0,1.9
N#CCC(=O)N/N=C/c1cn(Cc2ccc3ccccc3c2)c2ccccc12,-8.8,-0.1,-2.5,-0.7,0.3,-0.5,-7.0%,1.5,-2.1,0.7
CN(C)S(=O)(=O)c1ccc(-c2ccccc2)cc1,-8.8,-1.2,-4.0,-5.6,x,-1.0,4.8%,x,x,x
O=c1[nH]ncc(N/N=C\c2cccs2)c1Cl,-5.1,-1.4,x,x,2.1,1.5,-2.1%,6.2,5.9,-4.3
Cc1c(NS(=O)(=O)c2ccc3c(c2)n(C)c(=O)n3C)c(=O)n(-c2ccccc2)n1C,-1.6,1.3,3.8,-0.9,x,-2.3,-4.1%&0.8%,x,x,x
COc1ccccc1C(=O)Nc1ccc(OCC(=O)N2CC(C)OC(C)C2)cc1 (stereo not given),x,-1.0,x,x,0.9,1.1,12.8%,2.9,-1.4,-1.3
CCCC(NC(=O)C(C)Sc1nnnn1C1CC1)c1ccccc1 (stereo not given),x,0.0,x,x,-9.1,0.6,x,1.4,9.9,-1.1
CCOC(=O)NC(NC(=O)OCC)C(=O)c1ccccc1,4.8,-4.5,-9.1,0.2,x,-0.4,-2.3%,x,x,x
CCOC(=O)c1cc2c(nc1N)CCCC2,-2.6,-4.0,4.2,u,4.9,0.8,x,-0.5,-8.8,-3.2
COc1ccccc1N1CCN(C(=O)Cn2nnc(-c3ccncc3)n2)CC1,-4.8,14.2,23.9,7.6,x,0.4,5.1%,x,x,x
CCOc1ccc2nc(SCC(=O)c3ccccc3)sc2c1,-8.8,-1.3,-8.6,2.1,-0.3,-0.8,0.7%,3.1,-21.5,-0.1
O=C(Nc1ccc(F)cc1)Nc1ccc(N2CCCC2)c(S(=O)(=O)Nc2ccccc2Cl)c1,19.3,-1.4,-4.7,1.4,-0.7,-1.9,x,x,x,x
O=C(Nc1nnc(S(=O)(=O)Cc2ccc(F)cc2)s1)c1ccccc1F,-6.4,4.8,38.9,2.6,-2.4,-0.1,x,-40.0*,-21.5*,-8.0*
O=C(NCc1ccncc1)C1CCN(S(=O)(=O)c2cc(Cl)ccc2Cl)CC1,-1.6,-8.5,-6.3,-1.2,-2.9,0.7,x,-4.6,3.3,0.4
CCCCc1nnc(SCC(=O)Nc2nccs2)n1C,-7.6,-5.5,-12.6,-3.7,1.2,0.3,x,4.7,24.2,3.8
CCN(CC)C(=O)/C=C/c1ccccc1,x,-0.6,x,x,-0.7,-3.0,x,7.9,6.7,-7.5
COc1ccccc1N1CCN(c2nc(C)nc3c2oc2ccccc23)CC1,-4.1,19.8,3.6,-3.6,x,-3.9,18.8%,x,x,x
C=CCOc1ccc(/C=C2\SC(=S)N(N3CCOCC3)C2=O)cc1,-10.2,5.6,4.9,3.9,2.1,-0.7,-4.7%,5.5,-5.2,16.1
Cc1cccc(C)c1NC(=O)CN(C)CC(=O)c1c(N)n(Cc2ccccc2)c(=O)n(C)c1=O,x,1.8,x,x,2.2,0.7,9.8%,0.9,3.3,0.2
CCS(=O)(=O)N1CCCC(C(=O)NCc2ccccc2Cl)C1 (stereo not given),4.1,2.0,-0.9,u,x,-0.8,-0.5%,x,x,x
Cc1cc(C)n(CC(C)NC(=O)c2cc(COc3c(F)cccc3F)on2)n1 (stereo not given),5.9,1.1,15.8,0.2,-2.5,0.0,-0.7%,-13.3,-20.2,-6.6

# Assay outcomes as filed in PubChem.
